PrP UTR inh = suppresses PrP 5' UTR mRNA reporter expression | cell-based PrP 5' UTR mRNA reporter, plate reader | inhibition, % (no concentration beside the values) | actives 0.35% (n = 340,000);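 active = every replicate at 50% or more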;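 also: 0 = median of the neutral control wells; tested in H4 reporter cells; numbers are from one replicate; inactives centre near -14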
BJeLR lethal = kills HRASV12-expressing BJeLR cells; BJeLR (HRASV12) viability, CellTiter-Glo ATP luminescence, 48 h; reference of the scale not given here; inhibition, % (concentration not given with the values); actives 0.17% (n = 300,000); AID 1554;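 active = replicate mean above 50%; inconclusive = above 50% but judged a plate artefact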;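 also: 50 nL library stock added to about 25 µL; numbers are from one replicate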
Sa RN4220 lethal = S. aureus RN4220 growth inhibition; OD600, 16 h; actives 0.33% (n = 330,000); inhibition, % (no concentration beside the values);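 active = z-score of -3 or lower and OD600 up to 0.18 on both plates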;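 also: plate controls were untreated cells for no effect and reference antibiotic for full effect; stock transfer was 100 nL into about 80 µL; one replicate is shown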
Autofluor counter = counter-screen for toxin protease inhibitors: compound fluorescence; actives 3.1% (n = 360,000); AID 624483; fluorescence intensity (no concentration beside the values); compound autofluorescence counterscreen, microsphere flow cytometry; hits give high values;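 active = at least 3 SD above the mean of all compounds, about 16000 in these data; inconclusive = too few beads counted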;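 also: 100 nL of 1 mM stock went into each well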
Sa ugtP lethal = kills S. aureus RN4220 lacking UgtP | growth inhibition, % (test concentration not listed) | actives 0.54% (n = 330,000) | S. aureus RN4220 ugtP deletion, OD600 growth, 16 h; some inactives read as strong as hits | AID 1259309;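 active = z-score under -3 and OD600 up to 0.15 on both plates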;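 also: plate controls were untreated wells for no effect and antibiotic for full effect; wells of about 80 µL received 100 nL stock; the first replicate is given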
Mtb hypoxia rep = reduces hypoxia-regulated biosensor signal in M. tuberculosis; actives 0.1% (n = 300,000); fluorescence inhibition, % (test concentration not listed); M. tuberculosis hypoxia-regulated fluorescent reporter, fluorescence;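 active = 35 to 45% if threefold the growth effect, above 45% if 1.5-fold the growth effect; inactive = the rest, general growth blockers included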;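 also: wells of about 50 µL received 100 nL stock; 0% = vehicle wells and 100% = reference inhibitor wells; whole bacteria with a GFP reporter of the hypoxia response; strong numbers were not always called active; many hits fall short of the cut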
Mtb hypoxia rep growth = further read-out of Mtb hypoxia rep, marked with its call; growth inhibition, %; measured here: M. tuberculosis growth (absorbance);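 0% = vehicle and 100% = reference antibiotic; read after six days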
* marks the source's active call; other numbers are inactive results; ? = inconclusive; · = no result given. Compounds were not picked by outcome. About 4% of those tested had a hit in this group.

SMILES	PrP UTR inh	BJeLR lethal	Sa RN4220 lethal	Autofluor counter	Sa ugtP lethal	Mtb hypoxia rep	Mtb hypoxia rep growth
COc1cc(C(CCN2CCCC2)c2c(OC)cc(OC)c3c(-c4ccccc4)cc(=O)oc23)cc(OC)c1OC (stereo unspecified)	-13	-4	0.5	3251	1	12	9
CCCCCCn1c(=O)c(F)cn(Cc2ccc(OC)c([N+](=O)[O-])c2)c1=O	-20	4	3.2	3238	18	4	8
CSc1ncccc1C(=O)OCC(=O)NCCCc1ccccc1	-16	·	-1.4	8744	2	2	8
COCCCNC(=O)CCN1N=C(c2ccccc2)CCC1=O	-16	3	3.8	4159	2	-2	-2
Cc1cccc(C(=O)Nc2ccccc2C(=O)NCc2cccnc2)c1	-10	-9	3.2	2586	5	0	4
CCO[C@H]1OC(C(=O)N2CCN(C)CC2)=C[C@@H](c2ccc(Br)cc2)[C@@H]1CCCO	-4	7	·	4092	·	·	·
COc1ccc(C(=O)N2CCC(C(=O)Nc3cccc(C)c3)CC2)cc1OC	-17	9	2.5	11101	2	8	7
CCOC(=O)c1ccc(NC2c3ccccc3C(=O)N2c2cccnc2)cc1 (stereo unspecified)	-15	9	1.9	6126	-6	-2	-1
CC(=NNC(=O)CSCc1ccccc1Cl)c1cc(O)ccc1O	·	·	-6.3	·	6	7	-8
Cc1c(NC(=S)Nc2cccc(Cl)c2)c(=O)n(-c2ccccc2)n1C	-15	5	2.4	5320	0	0	0
Cc1cc(C)nc(SCCC(=O)Nc2ccccc2Cl)n1	-15	-11	4.3	4503	4	14	-2
COc1ccc(NC(=S)N2CCC(C(=O)c3ccc(Cl)cc3)CC2)cc1	-20	·	3.6	3130	6	12	4
CC(=O)c1c(C)[nH]c(C(=O)OCC(=O)N(C)c2c(N)n(Cc3ccccc3)c(=O)[nH]c2=O)c1C	-14	6	0.7	·	10	-1	7
COC(=O)Cc1cc(=O)oc2cc(OC)ccc12	·	9	6.3	7866	4	6	6
O=C(c1cc(Br)ccc1Cl)N1CCN(c2ncccn2)CC1	-22	2	1.0	4012	16	1	6
CCCCn1nc(C(=O)NCC(c2cccs2)N2CCOCC2)c2ccccc2c1=O (stereo unspecified)	-13	·	6.0	3923	0	5	1
O=C(O)COc1ccc(-c2nc(-c3ccccc3)c(-c3ccccc3)[nH]2)cc1	-32	-7	0.8	5488	12	11	7
O=[N+]([O-])c1ccc(NN=Cc2sc(N3CCOCC3)nc2-c2ccccc2)c(S(=O)(=O)Nc2ccc(Cl)cc2)c1	·	·	21	·	17	6	-10
COc1ccccc1C(=O)C1CCCN(C(=O)c2ccc(C(C)=O)s2)C1 (stereo unspecified)	-16	8	3.3	4444	2	8	6
CC1S/C(=N/N=Cc2cccs2)NC1=O (stereo unspecified)	·	·	2.8	·	-1	11	4
COc1ccc(Cl)cc1NC(=O)NCCN1CCNC1=O	-10	-1	1.4	·	0	-3	6
CN(C)CCCNC(=O)CC(c1ccc(F)cc1)c1ccco1 (stereo unspecified)	-19	6	1.0	2904	3	·	·
CC1(C)NC(=S)NC1=S	-18	·	5.1	2961	5	11	8
CC(C)C(=O)Nc1cc2c3c(c1)CCC(=O)N3CCC2	-16	13	1.7	5734	1	9	-3
O=C(NCc1ccccc1)C(c1ccc(F)cc1)N(C(=O)c1csnn1)C1CCCC1 (stereo unspecified)	6	-6	3.7	3632	1	6	8
(continued)
SMILES	PrP UTR inh	BJeLR lethal	Sa RN4220 lethal	Autofluor counter	Sa ugtP lethal	Mtb hypoxia rep	Mtb hypoxia rep growth
O=C(CSc1nnc(SCc2ccccc2)s1)NN=C/C=C/c1ccccc1[N+](=O)[O-]	·	·	16	·	-4	3	8
Cn1c(=O)c2c(nc(Oc3ccccc3Cl)n2C)n(C)c1=O	-6	7	0.3	3522	7	6	7
COc1cc(NC(=S)N2CCCC2)cc(OC)c1	9	·	1.4	?	1	-1	7
CC(=O)NCC(=O)N1CCCC(C(=O)c2ccc(Oc3ccccc3)cc2)C1 (stereo unspecified)	-17	0	4.6	2612	6	9	20
COc1ccc(S(=O)(=O)N2CCC(O)(c3cccnc3)CC2)cc1OC	-16	-5	3.9	4215	3	10	4
O=C(CCC(=O)N(CC(=O)NC1CCCCC1)c1ccc(F)cc1)Nc1ccccn1	-9	-3	5.0	3321	-3	7	1
CN1CCN(NC(=O)c2cc(-c3ccccn3)nc3ccccc23)CC1	-15	·	7.3	3677	3	0	7
CC(=O)C1=C(O)C(=O)OC1c1ccc(Cl)cc1 (stereo unspecified)	-2	7	-2.4	4105	0	1	-1
Cc1cc(=O)[nH]c(SCC(=O)N2CCCC(C)C2)n1 (stereo unspecified)	-15	-7	2.1	4438	3	-2	-4
S=c1sc2c(Cl)ncnc2n1-c1ccccc1	-7	16	3.4	4071	27	25	25
CCOc1ccc(S(=O)(=O)Nc2cccc(C(=O)N3CCN(c4cccc(OC)c4)CC3)c2)cc1	-23	-11	-7.2	6560	7	10	-2
CSc1cc(-c2ccc(Cl)cc2)n(Cc2ccccc2)c(=O)c1C#N	0	9	-0.8	2792	4	·	·
CC(=O)Nc1ccc(Nc2cc(C)nc3c(-c4ccc(Cl)cc4)c(C)nn23)cc1	-5	6	4.1	1951	-2	1	2
Cc1cccc(-c2noc(CSc3ccccc3)n2)c1	-70	2	9.0	4316	28	·	·
COCCc1nc2ccc(C(=O)N3CCCCC3COC)cc2o1 (stereo unspecified)	-16	10	0.3	6031	3	6	0
CCOc1ccc(-n2cc(C(=O)N3CCN(C)CC3)c3cc(OC)c(OC)cc3c2=O)cc1	1	-1	5.7	4790	10	·	·
COc1ccc(C(=O)CNc2cccc(F)c2)cc1	-30	1	2.2	4693	3	4	0
O=[N+]([O-])c1cccc(C=NNc2cc(N3CCOCC3)ncn2)c1	·	·	2.0	·	4	16	8
Cc1cccc(Nc2nc(Cl)ncc2F)c1C	-15	6	1.8	3647	-6	3	19
O=C1CCC(C(=O)N2CCCCCCC2)CN1Cc1cccc(C(F)(F)F)c1 (stereo unspecified)	-22	-17	-1.3	5085	4	2	3
C/C(CCc1ccc2c(c1)OCO2)=N\N=C(/N)SC1CC(=O)N(c2ccccc2F)C1=O (stereo unspecified)	-17	6	·	4530	·	·	·
O=c1[nH]c(/C=C2\C=Nc3ccccc32)c(O)n1Cc1ccccc1F	-7	-5	-11	3614	-6	-14	-15
CC1Sc2ccc(S(=O)(=O)NCc3ccccc3)cc2NC1=O (stereo unspecified)	-116	8	57	5366	27	0	-2
N=c1n(CC(=O)c2ccc(Br)s2)c2ccccc2n1Cc1ccccc1	-6	10	0.0	4794	-16	-2	1
O=C(Nc1ccc(S(=O)(=O)N2CCOCC2)cc1)c1cc(S(=O)(=O)N2CCOCC2)ccc1Cl	-11	0	0.4	6089	-2	-10	4

Record cards, as listed above. Order of values: PrP UTR inh	BJeLR lethal	Sa RN4220 lethal	Autofluor counter	Sa ugtP lethal	Mtb hypoxia rep	Mtb hypoxia rep growth
CC1Sc2ccc(S(=O)(=O)NCc3ccccc3)cc2NC1=O (stereo unspecified) is listed with -116	8	57	5366	27	0	-2
Cc1cccc(-c2noc(CSc3ccccc3)n2)c1 is listed with -70	2	9.0	4316	28	·	·
CC(=O)C1=C(O)C(=O)OC1c1ccc(Cl)cc1 (stereo unspecified) is listed with -2	7	-2.4	4105	0	1	-1
S=c1sc2c(Cl)ncnc2n1-c1ccccc1 is listed with -7	16	3.4	4071	27	25	25
CC(=O)NCC(=O)N1CCCC(C(=O)c2ccc(Oc3ccccc3)cc2)C1 (stereo unspecified) is listed with -17	0	4.6	2612	6	9	20

Continued:
SMILES	PrP UTR inh	BJeLR lethal	Sa RN4220 lethal	Autofluor counter	Sa ugtP lethal	Mtb hypoxia rep	Mtb hypoxia rep growth
O=C(COc1ccccc1O)NCCN1CCOCC1	-2	-5	2.1	3342	1	-1	-1
COc1cc(/C=N/NC(=O)c2ccccc2O)ccc1OC(=O)CC1SC(=O)NC1=O (stereo unspecified)	3	9	·	3504	·	·	·
O=C(NCCCn1ccnc1)c1ccc(S(=O)(=O)N2CCCCCC2)cc1	5	4	2.5	2578	1	·	·
Cc1ccc(CNC(=O)c2ccc(N3CCC4(CC3)CC(c3ccccc3)=NO4)c([N+](=O)[O-])c2)cc1	-12	3	·	4011	·	·	·
COC(=O)CN(c1ccc2c(c1)OCCO2)S(=O)(=O)c1ccccc1	-21	-5	1.1	4795	6	·	·
COc1ccccc1NC(=O)NCCc1c[nH]c2ccccc12	-37	12	·	4663	·	·	·
S=c1[nH]nc(-c2ccccc2)n1Cc1ccccc1	8	8	4.6	4388	3	·	·
COc1cc(/C=N/NC(N)=S)ccc1OCC(=O)Nc1ccc(C)c(C)c1	-7	0	·	3218	·	·	·
CC(C)CNC(=O)COC(=O)/C=C/c1ccccc1[N+](=O)[O-]	-17	-4	-1.0	3997	1	·	·
O=C(CC1(O)C(=O)N(C/C=C/c2ccccc2)c2ccccc21)c1ccccn1 (stereo unspecified)	-12	15	12	7691	4	3	6
Cc1cccc(N2CCN(CC(=O)Nc3nccs3)CC2)c1C	-10	-8	1.8	9550	-1	0	0
CCOC(=O)C1=C(CNCc2ccc(F)cc2)NC(=O)NC1c1cccc([N+](=O)[O-])c1 (stereo unspecified)	-6	3	-2.5	5362	-7	-10	6
Cc1cc(NC(=O)CCC(=O)N(CC(=O)NCC2CCCO2)c2ccc(C)c(C)c2)no1 (stereo unspecified)	-3	-9	0.4	3427	5	-2	2
Cc1ccc(S(=O)(=O)N(CC#N)CC#N)cc1	-10	-6	6.3	4626	7	2	3
C=C(C)C(=O)N1CC2(CC(c3cccc(NC(=O)C(C)=CC)c3)=NO2)CC1C(N)=O (stereo unspecified)	·	·	-2.9	·	-2	-6	-10
O=C(Nc1cccc(S(=O)(=O)N2CCOCC2)c1)c1ccc(Cl)c([N+](=O)[O-])c1	-22	3	-5.3	3808	-11	7	4
C[C@@H](C(=O)NCCc1ccccc1F)N1C(=O)N2CCc3c([nH]c4ccccc34)[C@@]2(C)C1=O	-27	-7	3.8	6002	-8	·	·
COC(=O)c1cccnc1NC(=S)NNC(=O)c1ccccc1	-2	1	5.3	·	8	-5	-2
O=C1CCN(Cc2ccccc2)CCN1[C@H](CSc1ccccc1)c1ccccc1	6	-1	·	4311	·	·	·
COc1ccc2c(c1OC)C(=O)N(c1ccc(OCc3ccccc3)cc1)C2=O	-8	9	4.6	3066	12	10	0
CC(=O)c1ccc(NC(=O)c2cnn3c(C(F)F)cc(C4CC4)nc23)cc1	-9	1	3.3	2860	2	21	2
COC(=O)C1=C(C)N(C)C(C)=C(C(=O)OC)C1c1ccccc1C	-4	4	0.7	5349	-3	·	·
COc1cc2c(cc1O)C(Cc1ccc(O)cc1)NCC2 (stereo unspecified)	2	-5	7.8	4407	3	22	10
O=C(c1ccccc1)n1c(=O)cc[nH]c1=O	-15	7	5.9	2813	3	23	14
CCCNC(=O)CSc1n[nH]c(=O)n1CCc1ccccc1	-17	3	0.2	3945	3	6	4
Other compounds
SMILES	PrP UTR inh	BJeLR lethal	Sa RN4220 lethal	Autofluor counter	Sa ugtP lethal	Mtb hypoxia rep	Mtb hypoxia rep growth
NC(=O)C1CCN(C(=O)C2CCN(S(=O)(=O)c3ccccc3)CC2)CC1	-27	5	-8.7	5813	-6	9	11
COc1ccc(/C=C/C(=O)Nc2ccccc2C(F)(F)F)cc1OC	11	-13	1.3	9896	-3	-2	5
O=C(COc1ccc(Cl)cc1Cl)NC(=S)Nc1ccc(CN2CCOCC2)cc1	·	1	-4.1	4689	16	6	7
c1ccc(CCNCCOc2ccccc2)cc1	-26	4	3.2	3653	1	8	-4
CCC1=CC(c2ccccc2)n2ncnc2N1 (stereo unspecified)	-1	17	3.6	3377	1	2	10
CCOCCn1c(CN2CCN(C)CC2)nc2c1c(=O)n(C)c(=O)n2C	13	-5	-10	4212	-3	-1	-1
COc1ccc(C(CNC(=O)COc2ccccc2C)N2CCOCC2)cc1 (stereo unspecified)	1	2	5.3	?	3	5	4
CCCCCN=CC1=C(O)CC(c2ccccc2)CC1=O (stereo unspecified)	-15	-8	4.1	2636	8	1	4
CCCCCCSc1nsc(NC(C)=O)n1	-28	-3	-8.1	2395	8	·	·
CCn1c(=O)cc(OCC(=O)Nc2ccc(OC)c(OC)c2)c2ccccc21	-16	-4	-3.4	2067	-14	5	-2
COc1ccc(C(=O)Nc2ccc(-c3cn4ccsc4n3)cc2)cc1S(=O)(=O)N1CCOCC1	0	-3	-0.1	20320*	-14	-5	4
O=C(CSc1nccn(-c2ccc(F)c(F)c2)c1=O)NC1CCCC1	1	2	-0.1	6224	5	3	10
